Menin-MLL FL inh – qHTS Assay for Inhibitors Targeting the Menin-MLL Interaction in MLL Related Leukemias: Competition With Fluorescein Labeled MLL-derived Peptide. FP activity change, % at 61.4 µM. 290,000 tested, under 10 active. Fluorescence polarization, fluorescein-MLL peptide displacement from menin. AID 1766, 2009; inconclusive = falling polarisation curve, or a change in total fluorescence; inactive = total fluorescence flat and polarisation flat or rising; no compound was filed as active; the % refers to the polarisation; negative = inhibition;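 further: % of control where 0% means no effect; inhibitors lower the polarisation; unlabelled MLL peptide was the positive control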
Sfp PPTase inh – qHTS Assay for Inhibitors of Bacillus subtilis Sfp phosphopantetheinyl transferase (PPTase) | 4'-phosphopantetheinyl transferase ffp (Bacillus subtilis), Q9F4F7 | Biochemical Sfp PPTase activity, qHTS | Potency, µM, for inactives: max response, negative = inhibition, actives largely listed as inhibitors | 310,000 compounds, 3.5% hits | AID 1490, 2009; active means well fitted inhibition curve with a large enough effect; inconclusive means small, poorly fitted or top-dose-only effect, or another doubt; inactive means no such curve, though single readings can be large or run the other way;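 further: the enzyme is Sfp with the accession as filed and its product quenches rhodamine fluorescence; potency means the concentration at half of the fitted maximal effect; 0% = enzyme reaction without inhibitor and -100% = no enzyme wells; top concentration of the series not given in the record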
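Fluorescence-quenching assay: 15 nM Sfp-PPTase preincubated 15 min at room temperature with compound, then 5 uM rhodamine-CoA and 12.5 uM BHQ-2-labelled YbbR peptide added. Fluorescence (ex 525/em 598 nm) read at start and after 30 min; difference gives rate.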
ClpP mod – qHTS Assay for Activators of ClpP; Potency, µM (titrated, usually from 57.5 µM), for inactives: top-dose activity change, negative = active; 340,000 compounds, 1.9% hits; purified B. subtilis ClpP, FRET peptide cleavage, 20 min; active = well fitted falling curve with a large enough effect; inconclusive = small, poorly fitted or top-dose-only effect; inactive = no such curve, though single readings can be large or run the other way; further: potency means the concentration at half of the fitted maximal effect; the source files actives as falling curves though it sought activators and does not explain the sign; nearly all actives have a fitted effect of over 65% in size; many hits overshoot -100%
Target sequence (P80244 whole entry, looked up): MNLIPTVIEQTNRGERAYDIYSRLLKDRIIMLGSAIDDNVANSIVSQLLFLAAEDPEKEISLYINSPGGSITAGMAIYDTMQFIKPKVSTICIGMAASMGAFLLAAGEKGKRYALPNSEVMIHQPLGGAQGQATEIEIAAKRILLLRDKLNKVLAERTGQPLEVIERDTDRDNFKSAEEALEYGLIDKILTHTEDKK
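ClpP 10 microg/mL final, pH 8 Tris/KCl buffer with BSA, glycerol, Tween-20; compound pinned in; FRET-FV substrate; RT 20 min; Ex320/Em430; ΔFRET vs ADEP 5.8 microM, DMSO, no enzyme.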
TRPML1 blocker – qHTS for Inhibitors of the Human Mucolipin Transient Receptor Potential 1 (TRPML1); activity change, negative = inhibition, % (no concentration beside the values); 390,000 compounds, 0.02% hits; TRPML1-inducible cells, Ca2+ dye fluorescence, FDSS; stronger effect = lower value; inhibition of EC80 agonist-evoked calcium signal; Mucolipin-1 (Homo sapiens), Q9GZU1; in the data active means activity change below about -50%; inconclusive means about -30% to -50%; inactive means above about -30%;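 further: stimulus is agonist 54-4 at its EC80 concentration; on the % scale 0 is the no-effect control and ±100 the full control effect; compound concentration not given in the record; the text of the record puts the active cut at -80%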
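Calcium fluorescence in TRPML1-DL cells induced overnight with Tet: a 110 s read after compound pin addition, then a 110 s antagonist read after challenge with 54-4 at 4 uM final (EC80).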
TRPV1 PAM – HTS Assay for Compounds that Act as Potentiators of the Vanilloid Receptor 1 | Transient receptor potential cation channel subfamily V member 1 (Homo sapiens), Q8NER1 | 320,000 compounds, 0.02% hits | TRPV1-expressing cells, Fluo-8 calcium influx, capsaicin EC20 potentiation; host cell line not named in the record; control for the full effect not named in the record | potentiation, % at 8.33 µM; active means potentiation above 80%; inconclusive means 30% to 80%; inactive means below 30%; further: 0% is about no effect
Target sequence (Q8NER1 whole entry, looked up): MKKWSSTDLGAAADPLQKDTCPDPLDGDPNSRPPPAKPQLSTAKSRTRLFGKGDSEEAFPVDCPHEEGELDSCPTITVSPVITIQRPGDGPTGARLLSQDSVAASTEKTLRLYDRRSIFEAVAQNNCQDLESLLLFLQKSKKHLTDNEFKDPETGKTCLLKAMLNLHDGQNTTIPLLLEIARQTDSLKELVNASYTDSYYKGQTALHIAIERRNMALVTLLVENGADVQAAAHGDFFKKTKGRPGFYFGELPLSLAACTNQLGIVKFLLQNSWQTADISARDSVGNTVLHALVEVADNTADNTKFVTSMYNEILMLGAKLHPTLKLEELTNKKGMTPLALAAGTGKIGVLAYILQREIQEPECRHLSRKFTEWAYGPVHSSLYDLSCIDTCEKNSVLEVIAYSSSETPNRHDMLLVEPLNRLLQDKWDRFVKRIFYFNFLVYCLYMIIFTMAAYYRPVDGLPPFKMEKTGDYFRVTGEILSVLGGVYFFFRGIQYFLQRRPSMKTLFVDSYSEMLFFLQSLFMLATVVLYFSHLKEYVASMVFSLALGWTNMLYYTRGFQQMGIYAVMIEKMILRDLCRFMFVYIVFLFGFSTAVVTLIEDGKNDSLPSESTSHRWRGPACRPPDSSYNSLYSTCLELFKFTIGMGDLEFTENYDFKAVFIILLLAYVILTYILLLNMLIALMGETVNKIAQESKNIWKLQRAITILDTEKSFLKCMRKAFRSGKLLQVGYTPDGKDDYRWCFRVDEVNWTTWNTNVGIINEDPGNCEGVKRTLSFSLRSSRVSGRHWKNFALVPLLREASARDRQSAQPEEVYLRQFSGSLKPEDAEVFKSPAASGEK
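Cells expressing TRPV1 were dye-loaded with Fluo-8 and read kinetically: 10 s baseline, 3 min after compound (agonist portion), then 2 min after EC20 capsaicin (allosteric enhancer portion). Calcium-bound dye fluorescence at 480/520 nm.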
gsp antag – qHTS for Antagonists of gsp, the Etiologic Mutation Responsible for Fibrous Dysplasia/McCune-Albright Syndrome: qHTS | AID 624288, 2012 | gsp-mutant cells, cAMP HTRF, 30 min; control for the full effect not named in the record | 340,000 compounds, 0.4% hits | Potency, µM (top dose mostly 76.9 µM), for the others: at the top dose activity change, negative = inhibition, hits mostly inhibitors; active = falling curve of any shape with a large fitted effect; inconclusive = falling curve, mostly with a smaller effect; inactive = flat or rising curve; cell line not stated here;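 further: intracellular cAMP measured with PDE inhibitor Ro 20-1724 present during compound exposure; potency means the concentration at half of the fitted maximal effect; on the % scale 0 is the no-effect control and ±100 the full control effect; nearly all actives have a fitted effect of over 65% in size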
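G418-selected cells were plated in DMEM/10% FBS for 16-24 h at 37C, then treated with compounds plus the PDE inhibitor […] (300 uM solution added) for 30 min at 37C. Intracellular cAMP was measured by HTRF after 30 min lysis at room temperature.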
gsp ag – qHTS for Agonist of gsp, the Etiologic Mutation Responsible for Fibrous Dysplasia/McCune-Albright Syndrome: qHTS | 340,000 compounds, 0.13% hits | AID 624287, 2012 | gsp mutant cells, cAMP HTRF, 30 min; control for the full effect not named in the record | Potency, µM (titrated, usually from 76.9 µM), for inactives: top-dose activation (cAMP increase), hits mostly activators; active = well fitted activation curve with a large enough effect; inconclusive = small, poorly fitted or top-dose-only effect, or another doubt; inactive = no such curve, though single readings can be large or run the other way; cell line not stated here;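 further: phosphodiesterase inhibitor Ro 20-1724 added with compounds to block cAMP breakdown; potency means the concentration at half of the fitted maximal effect; nearly all actives have a fitted effect of over 60% in size; about a fifth of the inactives were tested at one dose only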
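Cells stably selected in G418 were plated at 2000/well, grown 16-24 hr, then given compounds in DMSO with the PDE inhibitor […] (300 uM solution added) for 30 min at 37C; cAMP was read by HTRF.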
* = called active by the depositor; ? = inconclusive; / = no result given; & = joins results of further samples; [ ] = remark or other dose.

Compound	Menin-MLL FL inh	Sfp PPTase inh	ClpP mod	TRPML1 blocker	TRPV1 PAM	gsp antag	gsp ag
CC1Cc2ccccc2N1C(=O)CSc1ncc(-c2ccc(F)cc2)n1C (stereo not given)	0.3	-12%	/	-5	-25	2%	-43%[inhibitor]
CCCOc1ccc(N2C(=O)CC(NCCCN3CCC(C(N)=O)CC3)C2=O)cc1 (stereo not given)	/	/	0.4%	-10	/	1%	-29%
CCC(C(=O)NC1CCCC1)N(C(=O)Cn1nnc(-c2cccs2)n1)c1cnc2ccccc2c1 (stereo not given)	7.2	10%	1.4%	-22	-9	15%	?
CC1(C(=O)O)CCC(C(=O)NC2CCCCCC2)C1(C)C (stereo not given)	4.4	7%	-0.4%	-10	-10	4%	-25%
Cc1ccc(S(=O)(=O)NC(CC(=O)OCc2ccccc2)C(=O)OCc2ccccc2)cc1 (stereo not given)	/	/	-0.8%	38	/	/	56%
CC(NC(=O)CCN1N=C(c2ccccc2)CCC1=O)c1ccc2c(c1)OCCO2 (stereo not given)	8.2	9%	/	/	-6	/	/
COc1cccc(NC(=O)C(NCC(C)(C)CN(C)C)c2ccccc2)c1 (stereo not given)	-8.3	79µM*	-1.1%	-3	?	1%	-31%[inhibitor]
Cc1nc(SCCCSc2n[nH]c(C)n2)n[nH]1	1.1	-10%	-4.3%	-15	3	2%	26%
COc1cccc(CNC(=O)CSCC(=O)Nc2ccc(C)cc2)c1	/	/	0.5%	-2	-7	2%	-26%
Cc1cc(C(=O)C(C)OC(=O)c2cnccn2)c(C)n1-c1ccccc1 (stereo not given)	/	/	0.8%	3	13	6%	-34%[inhibitor]
CCN1C(=O)N(CC)C2NC(=S)NC21 (stereo not given)	4.6	11%	1.2%	-16	3	1%	17%
O=C1CN=C(Nc2ccccc2Cl)N1Cc1ccc2c(c1)OCO2	-1.0	9%	-0.8%	-7	23	0%	4%
CCOC(=O)c1cnc2ccc(C)cn2c1=O	1.8	-3%	3.0%	-4	6	10%	8%
COc1ccccc1Nc1nc(-c2ccccc2)nc2ccccc12	-1.0	-5%	-20%	29	1	-30%	1%
O=C(COC(=O)COc1ccccc1[N+](=O)[O-])NC1CCCCC1	/	/	2.5%	-10	-2	7%	-19%
CCN(CC(=O)NC1CCS(=O)(=O)C1)C(=O)c1ccc(OC)c([N+](=O)[O-])c1 (stereo not given)	/	/	-1.7%	-4	3	-1%	26%
Cc1cc(C)cc(C(=O)OCC(=O)NCc2ccco2)c1	/	/	/	4	/	2%	-35%[inhibitor]
NC1=NC(=O)/C(=C/c2c(OS(=O)(=O)c3ccc(Cl)cc3)ccc3ccccc23)S1	/	11%	15%	-26	7	-13%	19%[15.4 µM]
Cc1csc(NC(=O)CN(C)S(=O)(=O)c2cccc3cccnc23)n1	-0.3	-2%	-2.3%	-13	-4	-2%	0%
CCn1nnnc1NCc1c(OC)ccc2ccccc12	2.3	19%	-0.9%	10	10	0%	-5%[15.4 µM]

One compound at a time, as listed above. Order of screens: Menin-MLL FL inh | Sfp PPTase inh | ClpP mod | TRPML1 blocker | TRPV1 PAM | gsp antag | gsp ag
Profile of CC1(C(=O)O)CCC(C(=O)NC2CCCCCC2)C1(C)C (stereo not given) → 4.4 | 7% | -0.4% | -10 | -10 | 4% | -25%
Profile of Cc1cc(C(=O)C(C)OC(=O)c2cnccn2)c(C)n1-c1ccccc1 (stereo not given) → / | / | 0.8% | 3 | 13 | 6% | -34%[inhibitor]
Profile of COc1ccccc1Nc1nc(-c2ccccc2)nc2ccccc12 → -1.0 | -5% | -20% | 29 | 1 | -30% | 1%
Profile of O=C(COC(=O)COc1ccccc1[N+](=O)[O-])NC1CCCCC1 → / | / | 2.5% | -10 | -2 | 7% | -19%
Profile of Cc1nc(SCCCSc2n[nH]c(C)n2)n[nH]1 → 1.1 | -10% | -4.3% | -15 | 3 | 2% | 26%

More structures follow:
Compound	Menin-MLL FL inh	Sfp PPTase inh	ClpP mod	TRPML1 blocker	TRPV1 PAM	gsp antag	gsp ag
CC(=O)c1cccc(NC(=O)C(C)N2CCc3ccccc3C2)c1 (stereo not given)	3.6	11%	/	16	-17	10%	7%[15.4 µM]
Cc1nn(-c2ccccc2)c2c1C1(C(=O)N(C)c3ccccc31)N(c1ccccc1)C(=O)N2 (stereo not given)	8.2	-5%	0.9%	-5	-14	3%	-8%
CCc1ccc([C@@H]2CC=C(C(=O)O)[C@H](c3ccccc3F)N2S(=O)(=O)c2ccc(C)cc2)cc1	/	/	-5.1%	-17	-22	-18%	-105%[inhibitor]
COc1ccc(NC(=O)C2CCN(C(=O)Nc3ccccc3)CC2)cc1S(=O)(=O)N(C)C	/	/	-1.0%	28	-10	10%	1%
O=C(NCc1cccc(Cl)c1)c1cccc(OC2CCN(C(=O)C3CC3)CC2)c1	/	9%	0.6%	-12	9	-22%	-3%[15.4 µM]
COc1cccc(-n2c(SCC(=O)N3CCc4ccccc43)nnc2-c2c[nH]c3ccccc23)c1	4.4	19%	-3.1%	32	5	5%	17%
CC(C)OC(=O)CCCN1C(=O)c2ccc(N)cc2C1=O	-10	27%	-0.7%	14	3	10%	12%
CC(C)c1ccc(NC(=O)C2C3C=CC(CC3)C2C(=O)O)cc1 (stereo not given)	/	/	-1.1%	3	/	9%	0%[15.4 µM]
OC(COc1ccccc1)Cn1cc(Br)cn1 (stereo not given)	-0.8	6%	0.5%	-9	-6	11%	21%
CC(C)n1nnnc1-c1cc(Cl)cc(Cl)c1	4.8	16%	0.1%	12	17	-18%	2%
CC(=O)N1CCc2cc(S(=O)(=O)NC(CC(C)C)C(=O)Nc3cc(C(=O)O)ccc3C)ccc21 (stereo not given)	-1.1	4%	-1.0%	6	1	11%	-2%[15.4 µM]
COc1ccc(-c2nn(-c3ccccc3C)cc2CNC(C)c2cn(C)nc2C)cc1F (stereo not given)	-0.6	15%	/	14	-12	-5%	0%
CCC(C)(C)NC(=O)C(c1ccc(O)cc1)N(C(=O)Cn1nnc2ccccc21)c1ccc(NC(C)=O)cc1 (stereo not given)	1.9	10%	-0.4%	0	20	22%	12%
COc1ccc(CNC(=O)CCCc2ccccc2)cc1	0.3	-1%	-6.4%	12	/	13%	-17%
COCCn1c(SCC(=O)NC2CCCC2)nnc1-c1ccco1	-8.3	14%	/	11	-9	11%	-13%
CN(C(=O)Cn1nnc2ccccc2c1=O)C1CCCCC1	4.0	15%	/	-9	1	8%	-1%
CCc1ccccc1OCC(=O)Nc1cccc(S(=O)(=O)NC2=NCCC2)c1	/	/	-0.7%	11	5	2%	12%
Cc1cccc(C)c1NC(=S)N1CCCN(Cc2ccc(F)cc2)C1	-0.4	21%	/	31	5	-1%	1%
COc1ccc(/C=N/NC(=O)c2nn(-c3ccccc3)c(=O)c3c(N)scc23)cc1	5.3	7.1µM*	2.6%	3	-2	-3%	4%
COc1ccccc1N1CC(C(=O)Nc2ccc(N3CCOCC3)cc2)CC1=O (stereo not given)	/	/	-1.1%	0	-1	-12%	-67%[inhibitor]
COc1cccc(N/N=C(\C#N)S(=O)(=O)C(C)(C)C)c1	-1.1	18%	/	-4	-5	-15%	1%
CN1OC[C@@H]2CN(C(=O)CCc3ccccc3)[C@H](c3cccc(Oc4ccccc4)c3)C[C@@H]21	/	/	1.8%	-9	/	-6%	/
O=C(Nc1cccc(S(=O)(=O)N2CCCCC2)c1)C1CCC1	/	/	1.8%	34	-19	-6%	-3%
CC(=O)N(Cc1ccc(F)cc1)Cc1nc2ccccc2c(=O)[nH]1	0.4	7%	/	10	0	-2%	0%[15.4 µM]
O=C(c1ccc(S(=O)(=O)N2CCOCC2)cc1)N(c1ccccc1)C1C=CS(=O)(=O)C1 (stereo not given)	1.4	5%	-1.3%	2	1	0%	8%
CSCCC(NC(=O)/C(=C\c1ccc(Cl)cc1)NC(=O)c1ccccc1)C(=O)O (stereo not given)	2.8	?	/	14	4	8%	6%
COc1ccc(-c2ccc3c(c2)C2CC3CCN2C(=O)C2CCCCC2)cc1 (stereo not given)	/	/	-4.1%	41	/	-13%	/
O=C(NC1CCC(C(=O)O)CC1)OCc1ccccc1 (stereo not given)	-2.4&1.2	15%&20%	-0.3%&-16%&-0.8%	-6&-1&-7	4&-2	9%&0%	20%&2%&-42%
CCOC(=O)c1c(C)n(C)c2cc(-c3cccc(C(F)(F)F)c3)c(O)cc12	1.5	3%	-24%	21	-1	14%	3%
COc1ccc(C(=O)NCCc2ccccc2)cc1OC	-1.2	17%	-0.1%	11	0	6%	30%
CCOc1ccc(S(=O)(=O)NCCCN2CCCC2=O)cc1	-3.7	11%	/	9	-1	20%	16%[15.4 µM]
O=C(COc1ccc(F)cc1F)Nc1cccnc1	/	-6%	0.7%	-6	-6	3%	1%
CCn1ccc(C(=O)NCCCN2CCCC2=O)n1	/	13%	1.2%	-5	4	12%	-28%
CC1(C)Cc2c(sc3c2c(=N)n(Cc2ccco2)c(=O)n3CC(=O)Nc2cccc(Cl)c2)CO1	2.8	8%	-9.2%	1	-11	-10%[15.4 µM]	-10%

Assay outcomes deposited in PubChem BioAssay by National Center for Advancing Translational Sciences (NCATS).
